MT1-MMP act inh: blocks activation of human MT1-MMP. P50281. HT1080 RFP-PRO-GFP cells, GFP/RFP ratio fluorescence, overnight; percent of plate control window, DMSO zero. GFP/RFP ratio change, % at 20 µM. hit rate 0.061% among 360,000. AID 651647;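 active = GFP/RFP ratio change of at least 30% with cell ATP level not reduced by more than half and red fluorescence within 50% of control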; note: strong numbers were not always called active
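Compound: 20 µM single dose, 1% DMSO / System: HT1080 RFP-PRO-GFP cells / Controls: DMSO and RFP-L50D-GFP cell wells / Read-out basis: GFP/RFP fluorescence ratio / Schedule: overnight compound exposure at 37 °C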
PABP polyA inh: blocks human PABP binding to poly(A) RNA. P11940. fluorescence polarization. inhibition, % at 35 µM. hit rate 1% among 290,000;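 active = 50% or more with normal probe brightness, or confirmed in later tests; inconclusive = above 50% with abnormal brightness, or retests that disagree; inactive = below 50% or failed in later tests; about a fifth of its hits are not listed in these tables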;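 note: calls also rest on retests at 20 µM and on dose response follow-up; controls were probe without protein and protein plus probe with vehicle; some compounds called inactive have numbers as strong as hits; many hits fall short of the cut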
Target sequence (P11940 whole entry, looked up): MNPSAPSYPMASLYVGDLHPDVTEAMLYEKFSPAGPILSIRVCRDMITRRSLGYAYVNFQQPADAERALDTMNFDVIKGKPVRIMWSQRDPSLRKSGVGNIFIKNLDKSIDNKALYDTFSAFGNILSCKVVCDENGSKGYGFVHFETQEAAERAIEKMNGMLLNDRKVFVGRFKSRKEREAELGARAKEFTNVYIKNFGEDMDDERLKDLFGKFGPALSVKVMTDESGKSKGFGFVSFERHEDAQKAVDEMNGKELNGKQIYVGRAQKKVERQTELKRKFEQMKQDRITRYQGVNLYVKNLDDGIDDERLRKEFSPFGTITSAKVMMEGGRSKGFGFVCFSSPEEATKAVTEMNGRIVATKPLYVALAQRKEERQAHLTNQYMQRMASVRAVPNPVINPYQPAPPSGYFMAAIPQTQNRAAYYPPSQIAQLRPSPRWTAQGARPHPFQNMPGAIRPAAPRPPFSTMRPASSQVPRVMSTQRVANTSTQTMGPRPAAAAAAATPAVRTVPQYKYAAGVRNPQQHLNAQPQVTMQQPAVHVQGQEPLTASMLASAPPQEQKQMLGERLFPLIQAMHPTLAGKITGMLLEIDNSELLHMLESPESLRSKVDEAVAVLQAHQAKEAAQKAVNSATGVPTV
Rce1 inhib: blocks yeast Ras-converting enzyme; Q03530; yeast membranes, quenched prenylated peptide cleavage fluorescence; calls only; hit rate 0.27% among 290,000; AID 2563;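 active = fall in fluorescence gain of 50% or more versus controls, with final raw signal at or below 3038400; inconclusive = same 50% fall but final raw signal above 3038400; inactive = fall in fluorescence gain under 50%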;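 note: plate controls were neutral control wells for no effect and wells lacking membranes for full effect; tested at 10 µM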
eIF4H inh: inhibitors of RNA binding by human eIF4H; Q15056; eIF4H fluorescence polarization binding assay; inhibition, % at 35 µM; hit rate 0.94% among 290,000;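 active = 50% or more with normal probe brightness, or confirmed in later tests; inconclusive = above 50% with abnormal brightness, or retests that disagree; inactive = below 50% or failed in later tests; about a fifth of its hits are not listed in these tables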;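 note: calls also rest on retests at 20 µM and on dose response follow-up; 0% = protein and probe with vehicle and 100% = probe without protein; strong numbers were not always called active; many hits fall short of the cut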
Env fusion inh: HIV envelope-mediated fusion inhibition. HeLa-JRFL Env/CEM21 cell fusion, luciferase. inhibition, % at 12.3 µM. hit rate 1.1% among 360,000. AID 651610;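 active = mean replicate inhibition score of at least 50 and every replicate individually at or above 50; inconclusive = only one of the two criteria met; inactive = mean below 50 and not all replicates reaching 50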;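 note: 0% = plate neutral controls and 100% = maraviroc near 300 nM; one replicate is shown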
UUG fidelity: yeast start codon fidelity modulation; S. cerevisiae UUG-firefly luciferase reporter, luminescence/redox ratio; activity score, % at 18.7 µM; hit rate 0.13% among 350,000;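 active = replicate mean at a twofold rise or more, about +100% in these data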;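 note: firefly luciferase made from a UUG start codon reports start codon fidelity; reporter light over untreated wells divided by growth signal over untreated wells; some hits fall short of that in this replicate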
CSC inhib: cancer stem cell inhibition | cancer stem cell-like cells viability, luminescence | inhibition, % at 7.5 µM | hit rate 1.1% among 300,000;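 active = mean at 75% or more and at least half the replicates too; inconclusive = mean and replicates disagree; tested in HMLE shEcad cells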;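 note: 0% = median of negative and 100% = median of positive control wells; the first replicate is given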
MT1-MMP act inh RFP: further read-out of MT1-MMP act inh, marked with its call; RFP signal change, %; measured here: RFP expression control read;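 0 = vehicle wells; hits needed this value within 50% of zero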
An asterisk follows results filed as active; i = inactive; ? = inconclusive; nt = no result given; & = joins results of further samples; [ ] = remark or other dose.

entry	molecule	MT1-MMP act inh	MT1-MMP act inh RFP	PABP polyA inh	Rce1 inhib	eIF4H inh	Env fusion inh	UUG fidelity	CSC inhib
1	CCCOC(=O)CCCCCCCCC(O)CN1CCCCC1 (stereo unspecified)	1	1	-15	i	-14	3	18	-6
2	CC(C)(C)c1ccc(OC(=O)CN2C(=O)C3C4CCC(C4)C3C2=O)cc1 (stereo unspecified)	4	4	8	i	8	6	nt	-10
3	Cc1ccc(N(C)C(=O)c2cnn(-c3ccccc3)c2C)c(C)c1	-2	1	1	i	7	28	-2	-17
4	CCCCOc1ccc(CSc2nncn2N)cc1	3	3	-12	i	-8	nt	-30	9
5	O=c1cc2oc3cc(O)c(O)cc3c(-c3ccccc3O)c-2cc1O	5	47	?	nt	?	nt	nt	nt
6	COc1ccccc1N1CCN(Cc2ccco2)CC1	11	3	10	i	11	-36	25	-6
7	CCNC(=O)N1CCNC(=O)C1CC(=O)Nc1ccc(C(=O)OCC)cc1 (stereo unspecified)	-9	2	-4	i	-7	nt	-4	-1
8	CCOc1nnc(C)c2c(C)n(-c3ccc(Cl)cc3)nc12	2	3	-5	i	0	nt	-10	-2
9	S=c1[nH]nc(-c2ccncc2)n1CC1CCCO1 (stereo unspecified)	-2	1	-4	i	-2	nt	-20	-7
10	Cc1ccc(N2CC(C(=O)N/N=C/c3sccc3C)CC2=O)cc1 (stereo unspecified)	5	-1	-6	i	-7	2	9	0
11	Cc1cc(C)c2c3c(cn2n1)c(=O)n(C)c(=O)n3C	0	2	nt	i	nt	nt	1	-16
12	N#Cc1ccccc1S(=O)(=O)N1CCN(c2nc(-c3ccccc3)nc3ccccc23)CC1	0	-1	nt	nt	nt	27	10	nt
13	CC(=O)Nc1ccc(S(=O)(=O)Nc2ccc(-c3ccc4nnc(C)n4n3)cc2)cc1	6	11	-5	i	-6	-6	nt	-3
14	Cc1ccc2c(c1)C(=O)CC1(CCCCCC1)O2	7	8	8	i	37	8	-17	0
15	COc1ccc(N2C(=O)C3CC(C)=C(C)CC3C2=O)c(OC)c1 (stereo unspecified)	8	2	1	i	-1	-2	-5	-8
16	CC(C)(C)OC(=O)N[C@H](C(=O)OC(C)(C)C)c1ccc2c(c1)OCO2	0	-1	nt	nt	nt	-6	-10	-24
17	Cc1ccc2c(c1)nc(NCCO)n2C	-7	-1	-1	i	-12	nt	-18	2
18	CCn1cnc2c1c(=O)n(CC(=O)Nc1cc(C)on1)c(=O)n2Cc1ccccc1	7	5	-1	i	-6	8	-16	-26
19	CN1C(=O)CS(=O)c2ccc(C(=O)NCCC3=CCCCC3)cc21 (stereo unspecified)	-3	-6	-7	i	0	6	-3	4
20	Cc1cc(=O)oc(C)c1C(=O)Nc1ccc(F)cc1	1	2	7	i	2	-6	-14	-11
21	COc1cccc(NC(=O)CN(C)C(=O)c2ccc(COc3ccccc3)o2)c1	23	-5	nt	nt	nt	nt	22	9
22	CC(C)NC(=O)Nc1cccc2c1O[C@H](CN(C)C(=O)NC1CCCCC1)[C@H](C)CN([C@H](C)CO)C2=O	1	3	nt	nt	nt	-11[16.7 µM]	-10&11	16
23	CN(CC(=O)Nc1ccccc1C(F)(F)F)C(=O)c1cccc(-n2cccc2)c1	-6	-3	nt	i	nt	7	-9	3
24	Cc1ccc(S(=O)(=O)N(C)C[C@H]2Oc3ccc(NC(=O)Nc4c(C)noc4C)cc3CC(=O)N([C@@H](C)CO)C[C@@H]2C)cc1	-2	2	nt	nt	nt	3	-14	-17
25	O=c1[nH]c2ccc(NC(=S)NCc3ccccc3)cc2[nH]1	0	-1	7	i	-5	7	-22	-19
26	O=C(c1ccccc1[N+](=O)[O-])N1CCc2ccccc2C1	0	1	-1	i	0	-2	-3	-16
27	COc1ccc(NC(=O)CCN2C(=O)c3cccc([N+](=O)[O-])c3C2=O)cc1	2	3	3	nt	-4	0	-2	-7
28	S=c1[nH]c2cc3ccccc3cc2[nH]1	4	6	2&3	i	12&-11	32	nt	1
29	Cc1cc(=O)oc(C)c1C(=O)OCC(=O)c1ccc(Cl)cc1	22	3	-11	i	-16	nt	nt	1
30	COCCNc1nc(Oc2ccc(CC(=O)OC)cc2)c2sc(-c3ccccc3)cc2n1	-4	-7	nt	nt	nt	34	-16	nt
31	Cc1cc(Br)ccc1NC(=O)CCSc1ccccc1	1	-3	-5	i	-4	nt	4	1
32	Cc1cccc(NC(=O)c2ccc(-n3ccnc3)nc2)c1	-3	-2	1	i	8	-43	nt	nt
33	COc1ccc(N2CCOCC2)c(NC(=O)c2cccc3ccccc23)c1	-2	-4	7	i	0	-7	-21	-5
34	CCOc1cc(/C=C2\NC(=S)N(C)C2=O)ccc1OCc1ccc(C(=O)O)cc1	-4	-1	15	i	7	9	-12	-11
35	O=C(CCS(=O)(=O)c1ccc(Cl)cc1)Nc1nnc(-c2ccco2)o1	4	5	nt	i	nt	14	-20	-3
36	CS(=O)(=O)N(CC(=O)N1CCOCC1)c1ccccc1	-1	2	-7	i	5	7	-19	0
37	Cc1cccc(N2CCN(C(=O)CCc3nc4ccccc4[nH]3)CC2C)c1 (stereo unspecified)	-2	-7	-8	i	-15	23	3	4
38	Cc1ccc(S(=O)(=O)N2C[C@H]3N(C(=O)OC(C)C)N(C(=O)OC(C)C)C[C@H](OC(=O)NCc4ccccc4F)[C@@]3(O)C2)cc1	1	-7	nt	nt	nt	-84	-8	nt
39	COc1ccc(O)c(/C=N/NC(=O)CSc2nnc(C)n2-c2ccccc2)c1	4	-4	-9	i	-6	nt	-19	39
40	O=S1(=O)CCN(Cc2ccccc2C(F)(F)F)CC1	2	4	-5	i	-2	2	nt	-2
41	CC(=O)NC(c1cccc([N+](=O)[O-])c1)c1c(OC(C)=O)ccc2ccccc12 (stereo unspecified)	-12	-10	nt	i	nt	nt	3	nt
42	COc1ccc(Br)cc1/C=N/NC(=O)C(c1ccncc1)N1CCOCC1 (stereo unspecified)	-1	1	-10	i	1	nt	-17	23
43	O=C1CCCN1CCCN=c1c([N+](=O)[O-])nn(-c2ccc(Cl)cc2)n1O	3	-1	-3	i	-13	-5	nt	nt
44	Clc1ccccc1OCc1nc(-c2ccc(Br)o2)no1	0	7	-11	i	1	-3	-9	23
45	CCCCc1n[nH]c(=S)n1Cc1ccccc1	0	-1	-11	i	-8	9	-25	25
46	Cc1ccc(S(=O)(=O)N2CCCCC2)cc1C(=O)NCc1ccc(S(N)(=O)=O)cc1	1	2	nt	nt	nt	0	-34	nt
47	Cc1ccccc1-c1nc(CN(Cc2c(C)nn(C)c2C)C2CC2)c(C)o1	-2	-10	-8	i	-2	13	-5	-10
48	CCOC(=O)c1cnc(-n2nc(C)cc2C)nc1Nc1ccc(OC)cc1	12	3	5	i	-17	26	-22	-4
49	CC(=O)OCCn1c(Br)nc2c1c(=O)[nH]c(=O)n2C	3	5	-2	i	-1	-65	-27	2
50	Cc1cccc(N2CCN(C(=O)CCN3C(=S)NC(C)(C)CC3C)CC2)c1C (stereo unspecified)	2	-7	2	i	-7	10	-28	-9

(continued)
entry	molecule	MT1-MMP act inh	MT1-MMP act inh RFP	PABP polyA inh	Rce1 inhib	eIF4H inh	Env fusion inh	UUG fidelity	CSC inhib
51	C#CCOCCOCCOCCNc1nc(N2CCN(C(=O)CCCCCCCCCCNC(=O)Cn3cc(CCCCCN)nn3)CC2)nc(N2CCN(C(=O)CCCCCCCCCCNC(=O)[C@H](CO)n3cc(CCCCCN)nn3)CC2)n1	7	4	nt	nt	nt	nt	3	11
52	CC1Cc2nc(SCC(N)=O)n(Cc3ccccc3)c(=O)c2S1 (stereo unspecified)	2	2	6	i	-6	-63	-3	-10
53	Cn1c(SCc2ccc(C(=O)Nc3nccs3)cc2)nnc1-c1ccccc1	3	-2	-11	i	7	nt	-20	-7
54	CCOC(=O)C1(C)CCCN1C(=O)c1ccc(OC)c(OC)c1 (stereo unspecified)	2	4	nt	nt	nt	10	-12	nt
55	CCN(CC)S(=O)(=O)c1ccc(NCc2ccccc2)nc1	-2	0	2	i	1	1	-17	0
56	Cn1c(-c2ccccc2[N+](=O)[O-])[n+](C)c2ccccc21	2	5	10	i	4	-5	nt	-13
57	CCOc1ccc(S(=O)(=O)NC(C)C(=O)NCc2ccccn2)cc1 (stereo unspecified)	4	1	-3	i	-8	-2	-16	2
58	O=C(N[C@@H]1CCC(=O)N(CC[C@H](Sc2ccc(Br)cc2)c2ccccc2)CC1)OCc1ccccc1	-4	-13	nt	nt	nt	-49	6	34
59	Cc1ccc(OCc2cc(C(=O)N3CCCC(C)C3)no2)cn1 (stereo unspecified)	1	-21	nt	nt	nt	39	-17	nt
60	Cc1cc(C)cc(OCC(=O)N2CCc3ccccc3C2)c1	0	3	6	i	6	7	-10	-5
61	CN(C)/C=N/c1cc(=O)[nH]c(=O)n1CC1CC1	1	4	-3	i	4	-22	-33	-5
62	CC(C)(C)NC(=O)COc1ccccc1C#N	-3	3	7	i	5	-13	-21	-9
63	OC(c1ccc(Cl)cc1)c1ncc(-c2ccc(Oc3ccccc3)cc2)[nH]1 (stereo unspecified)	4	-10	nt	nt	nt	11	-24	nt
64	COc1cc(OC)cc(C(=O)N2CCN(Cc3ccccc3C(F)(F)F)CC2)c1	-1	-2	6	i	7	-6	19	7
65	Cc1ccc(-n2nnc3c(=O)n(CC(=O)N4CCC(C)CC4)cnc32)cc1	-2	1	-9	i	-10	nt	-11	-3
66	COc1ccc(CCN(C(=O)c2cccc(F)c2)C2CC(=O)N(c3ccc(OC)cc3)C2=O)cc1 (stereo unspecified)	-4	-4	0	i	-2	nt	-2	-7
67	CCCC(C)c1nnc(NC(=O)C(=O)OCC)s1 (stereo unspecified)	-3	0	9	i	-1	-2	nt	10
68	CCOc1ccc(C2/C(=C(/O)c3ccc4c(c3)CC(C)O4)C(=O)C(=O)N2CCCn2ccnc2)cc1 (stereo unspecified)	0	1	-3	i	-7	-3	-14	-3
69	Cn1c(C2CC(=O)N(Cc3ccccc3)C2)nc2ccccc21 (stereo unspecified)	3	5	-1	i	-5	-19	-10	-11
70	CC(=O)c1cn(CC(=O)Nc2c(C)cccc2C)c2ccccc12	-4	-19	1	i	1	nt	nt	7
71	C=CCN(CC=C)C(=O)c1ccc2nc(Cc3ccc(OC)c(OC)c3)oc2c1	1	-30	48	i	-4	6	-14	-2

Screening data: PubChem, several laboratories
